RecA intein inh – blocks M. tuberculosis RecA intein splicing; P9WHJ3; cell-free RecA intein splicing, fluorescence; inhibition, %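 (about 9 µM by stock and volumes)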; hit rate 0.75% among 290,000; in the data active = inhibition above about 30%; inconclusive = no clear call, values can overlap the other calls;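 also: 0% = vehicle wells and 100% = reference inhibitor control wells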
Target sequence (P9WHJ3 whole entry, looked up): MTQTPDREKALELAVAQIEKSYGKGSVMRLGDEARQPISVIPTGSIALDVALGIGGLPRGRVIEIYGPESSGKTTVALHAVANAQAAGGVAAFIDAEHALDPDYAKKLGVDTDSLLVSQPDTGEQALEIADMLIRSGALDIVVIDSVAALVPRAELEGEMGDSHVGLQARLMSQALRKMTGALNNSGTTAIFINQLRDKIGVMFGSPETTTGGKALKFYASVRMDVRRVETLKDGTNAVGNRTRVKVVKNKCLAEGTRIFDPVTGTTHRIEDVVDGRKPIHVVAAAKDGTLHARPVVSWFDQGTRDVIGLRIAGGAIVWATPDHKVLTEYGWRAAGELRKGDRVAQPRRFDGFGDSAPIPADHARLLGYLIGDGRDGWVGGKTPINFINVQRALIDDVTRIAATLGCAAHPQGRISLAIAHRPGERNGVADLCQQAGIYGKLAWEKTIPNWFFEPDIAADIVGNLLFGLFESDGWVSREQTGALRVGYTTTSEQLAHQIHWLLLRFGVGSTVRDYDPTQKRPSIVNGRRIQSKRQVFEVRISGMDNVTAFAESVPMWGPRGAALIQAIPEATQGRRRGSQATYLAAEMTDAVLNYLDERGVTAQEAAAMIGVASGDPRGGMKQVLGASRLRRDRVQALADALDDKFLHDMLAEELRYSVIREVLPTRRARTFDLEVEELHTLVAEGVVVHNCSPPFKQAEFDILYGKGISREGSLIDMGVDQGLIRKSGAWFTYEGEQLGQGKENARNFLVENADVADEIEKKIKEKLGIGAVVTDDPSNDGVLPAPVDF
Mtb bLac sens – beta-lactam sensitization of Mtb H37Rv | hit rate 0.27% among 330,000 | M. tuberculosis H37Rv growth with meropenem, percent inhibition; hits of this screen are not shown here | inhibition, % at 25 µM | AID 434955;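 active = about 74% or more and at least 40 points above the plate without the antibiotic, then above 30% in a dose series; inconclusive = first-round hits that could not be retested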;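 also: growth measured after seven days incubation then overnight dye step; 0% = bacteria only wells and 100% = bacteria with antibiotic; twin plates without the antibiotic show which effects depend on it; some results filed as inactive read as strong as hits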
Arbovirus inh – blocks arbovirus infection; arbovirus infection cell-based antiviral screen; inhibition, % at 10 µM; hit rate 0.37% among 200,000;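 active = inhibition from about 30%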;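 also: bluetongue infection of BSR cells; cell survival read as ATP light after 72 h; 0% = infected wells without compound and 100% = uninfected wells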
Mtb H37Rv – M. tuberculosis H37Rv growth inhibitors, H37Rv strain (AID 1626). M. tuberculosis H37Rv growth inhibition; higher % means a stronger effect. inhibition, % at 10 µM; hits with a dose series show IC50 in µM. hit rate 0.95% among 220,000;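 active = confirmed in a dose series; inconclusive = inhibition above 80% but not taken into the dose series; inactive = below 80% or under 30% at every dose of the series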;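 also: bacteria incubated seven days before Alamar blue readout; 0% = bacteria only wells and 100% = bacteria with antibiotic wells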
YopH PTP inh – blocks Yersinia enterocolitica YopH tyrosine phosphatase. fluorescence Ex485/Em525. inhibition, %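 (about 10 µM by stock and volumes)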. hit rate 0.16% among 140,000. AID 898;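 active = inhibition of 50% or more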;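 also: controls were vehicle for no effect and minimum signal wells for full effect; inactives centre near -20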
Arbovirus inh repeat – further read-out of Arbovirus inh, marked with its call; inhibition, %; measured here: 10K subset replicate screen; many hits read low in the repeat;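 first of two repeat runs on a subset; 0% = infected and 100% = uninfected wells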
Starred values were filed as active, the others as inactive; ? = inconclusive; . = not tested or not shown. A portion of the library; count on the stated rates, not on these rows.

Preview:
SMILES	RecA intein inh	Mtb bLac sens	Arbovirus inh	Mtb H37Rv	YopH PTP inh	others
O=C(NCC1CCCO1)c1ccc(CNS(=O)(=O)c2ccc(F)c(Cl)c2)cc1 (centres undefined)	3.4	-13	-1	-5%	.
O=C(O)CCn1c2c(c3ccccc31)CCCC2	-1.6	-9	5	-12%	7
C/C(=C\C(=O)C(F)(F)F)Nc1cc(C)cc(C)c1	1.9	-4	6	4%	-28
COc1ccccc1CN1C(=O)CCC1(C)C(=O)NC1CCCCCC1 (centres undefined)	-0.4	0	3	-5%	1
CCC1(CC)C(=O)NC(=Nc2cccc(C(F)(F)F)c2)NC1=O	0.1	-19	-2	-21%	-23
COCCNC(=O)c1cc(-c2ccccn2)nc2ccc(S(=O)(=O)N3CCC(C)CC3)cc12	0.7	2	.	.	.
COC(=O)CC(NC(=O)c1ccco1)c1ccc(C(C)C)cc1 (centres undefined)	-0.6	-8	1	1%	-20

All compounds of this part, from the first entry:
SMILES	RecA intein inh	Mtb bLac sens	Arbovirus inh	Mtb H37Rv	YopH PTP inh	others
O=C(NCC1CCCO1)c1ccc(CNS(=O)(=O)c2ccc(F)c(Cl)c2)cc1 (centres undefined)	3.4	-13	-1	-5%	.
O=C(O)CCn1c2c(c3ccccc31)CCCC2	-1.6	-9	5	-12%	7
C/C(=C\C(=O)C(F)(F)F)Nc1cc(C)cc(C)c1	1.9	-4	6	4%	-28
COc1ccccc1CN1C(=O)CCC1(C)C(=O)NC1CCCCCC1 (centres undefined)	-0.4	0	3	-5%	1
CCC1(CC)C(=O)NC(=Nc2cccc(C(F)(F)F)c2)NC1=O	0.1	-19	-2	-21%	-23
COCCNC(=O)c1cc(-c2ccccn2)nc2ccc(S(=O)(=O)N3CCC(C)CC3)cc12	0.7	2	.	.	.
COC(=O)CC(NC(=O)c1ccco1)c1ccc(C(C)C)cc1 (centres undefined)	-0.6	-8	1	1%	-20
C[N+]1(CCNC(=O)/C=N/O)CCCCC1	-5.0	-3	1	1%	-6
COc1ccc(NC(=O)COC(=O)c2ccc(-n3cnnn3)cc2)cc1Cl	-1.1	-8	.	.	.
CCOP(=O)(OCC)C(NC(=O)c1cccc(C)c1)C(Cl)(Cl)Cl (centres undefined)	-0.2	-5	.	1%	.
Cc1nnc(SCc2nc3sc4c(c3c(=O)[nH]2)CCCC4)n(N)c1=O	-1.6	-1	.	3%	.
CC(C)(C)Nc1nc(Cl)nc(NCCN2CCOCC2)n1	-2.7	11	.	2%	.
C=CCN=C1SCC(=O)N1S(=O)(=O)c1ccccc1	3.5	17	-3	7%	-53
COc1ccc(-c2nc(CN3CCN(c4ncnc5ccccc45)CC3)c(C)o2)c(OC)c1	-2.1	4	21	3%	.
Cc1cccc(N2CCN(S(=O)(=O)c3cccs3)CC2)c1C	-0.2	5	.	.	.
C=CCNC(=S)N1CCOCC1	-2.6	3	2	-5%	.
Cc1ccsc1/C=N/Nc1nc2ccccc2s1	1.5	-2	2	12%	-11
C/C(=N\NC(=O)C1CC1)c1ccc(OC(F)F)cc1	1.4	2	.	.	.
Cc1ccc(CNC(=O)CS(=O)Cc2nc(-c3ccccc3C)oc2C)cc1 (centres undefined)	0.0	2	-9	9%	-1	Arbovirus inh repeat=-6
Cc1ccc(CNC(=O)CCS(=O)(=O)c2cc3c(cc2Cl)NC(=O)CO3)o1	-1.1	-5	.	.	.

Sorted by molar mass (rising): 3 of the compounds above
SMILES	RecA intein inh	Mtb bLac sens	Arbovirus inh	Mtb H37Rv	YopH PTP inh	others
CCC1(CC)C(=O)NC(=Nc2cccc(C(F)(F)F)c2)NC1=O	0.1	-19	-2	-21%	-23
COc1ccc(-c2nc(CN3CCN(c4ncnc5ccccc45)CC3)c(C)o2)c(OC)c1	-2.1	4	21	3%	.
COCCNC(=O)c1cc(-c2ccccn2)nc2ccc(S(=O)(=O)N3CCC(C)CC3)cc12	0.7	2	.	.	.

(more compounds)
SMILES	RecA intein inh	Mtb bLac sens	Arbovirus inh	Mtb H37Rv	YopH PTP inh	others
CC1CN(CC(O)COC2CCC(C(C)(C)C)CC2)CC(C)O1 (centres undefined)	.	1	-3	7%	.
CCCN(Cc1nnc(-c2ccccc2Cl)o1)C(=O)c1cc([N+](=O)[O-])cc([N+](=O)[O-])c1	-2.6	100	-3	?	.
OC(COc1ccccc1)CSc1ncn[nH]1 (centres undefined)	-4.6	1	3	-15%	-26
COc1cccc(C(=O)Nc2nc3ccccc3s2)c1	1.7	-15	.	.	.
COc1ccc(N2CC(C(=O)Nc3ccc4c(c3)OCO4)CC2=O)cc1 (centres undefined)	-1.3	?	-3	-9%	-48
COC(=O)c1ccc(NC(=S)N2CCN(Cc3ccc(Cl)cc3)CC2)cc1	5.4	4	3	-4%	-13
CCCCCCCC1CC(CSC(=N)N)OC1=O (centres undefined)	10	71	-8	5%	-28
COC(=O)c1c(NC(=O)C2C3CCC(C3)C2C(=O)O)sc2c1CCCCC2 (centres undefined)	-1.6	-3	19	1%	.
Cc1ccc(CN2CCSc3ccc(C(=O)NC4CCN(Cc5ccccc5)CC4)cc32)cc1	-2.4	90	12	94%	.
CCCOP(=O)(OCCC)C1(Nc2ccc(C)cc2)CCCCC1	2.1	-4	-22	.	-23
O=C(NCC1CCCCC1)c1ccc(Br)o1	0.6	-3	.	.	.
COc1ccc(-c2cc(C(F)(F)F)nc(SCC(=O)NCc3cnn(C)c3C)n2)cc1OC	1.9	1	2	5%	-17
CCCCNC(=O)C(=O)c1ccccc1NC(C)=O	-1.3	-9	-2	-5%	-13
O=S(=O)(NCCc1ccccc1)c1cccs1	-0.5	3	.	.	.
COc1cc(-c2cc(-c3ccccc3)nc(SCC(=O)Nc3nccs3)c2C#N)cc(OC)c1OC	1.3	1	-7	-9%	-20
O=[N+]([O-])c1cc(S(=O)(=O)N2CCCC2)ccc1NN=C1CCCCC1	-0.1	0	-1	-7%	-21
COc1cccc(N2CCN(CC(=O)c3c(C)[nH]c4ccccc34)CC2)c1	0.1	0	9	4%	-24
COCCn1nnnc1C(c1cccs1)N1CCN(c2cccc(C(F)(F)F)c2)CC1 (centres undefined)	9.7	-5	-5	6%	4
COC(=O)c1ccccc1OCCCCN1CC(C)OC(C)C1 (centres undefined)	1.3	-3	-3	9%	-6
NC(=S)n1[nH]c(-c2ccc([N+](=O)[O-])cc2)c(N=Nc2cccc([N+](=O)[O-])c2)c1=O	.	.	-4	-5%	.
CC1CCN(S(=O)(=O)c2ccc(NC(=O)C3CC(=O)N(c4ccccc4)C3)cc2)CC1 (centres undefined)	-1.7	2	.	.	.
C/C(Cc1ccccc1)=N\NC(=O)CNC(=O)c1ccc(Br)cc1	3.4	-8	5	-3%	-22
COc1ccccc1CNC(=O)CC1C(=O)NCCN1C1Cc2ccccc2C1 (centres undefined)	7.5	-2	.	.	.
CCOc1ccc(-n2c(-c3ccc(Cl)cc3)c[n+]3c2SCC3)cc1	0.2	5	-3	12%	.
C=C(C)Cn1c(N2CCC(Cc3ccccc3)CC2)nc2c1c(=O)[nH]c(=O)n2C	5.7	-2	-6	0%	-19
O=C(COC(=O)c1ccccc1NC(=O)c1ccco1)Nc1ccc2c(c1)OC(F)(F)O2	-3.8	5	0	0%	5
Cc1cc(C)nc(Sc2c(F)c(F)c(C(F)(F)F)c(F)c2F)n1	-1.3	5	2	-14%	-47
Cc1nc2ccccc2nc1OCC(=O)Nc1ccc2ccccc2c1	1.0	8	3	-2%	-9
CN1/C(=C/c2cccc[n+]2C)Sc2ccccc21	0.8	2	.	.	.
O=C1CSC(c2ccc([N+](=O)[O-])cc2)N1C1CCCCC1 (centres undefined)	3.7	6	-7	-4%	.
COc1ccc(CNc2oc(COc3ccccc3Cl)nc2C#N)cc1	2.2	3	11	7%	-18
Cc1ccccc1C(NC(N)=O)c1ccccc1 (centres undefined)	-0.7	-4	3	-2%	4
O=C(O)c1cccc(COc2ccc(CO)cc2Cl)c1	2.2	0	7	-8%	.
CNC(=S)NNC(=O)c1oc2nc(-c3ccccc3)cc(C)c2c1N	-25	1	.	-4%	.
CCc1nc(SCC(=O)NC2CCCC2)c2oc3ccccc3c2n1	-2.2	0	.	.	.
Cc1nn(C)c(C(=O)Nc2c(C)nn(Cc3c(F)c(F)c(F)c(F)c3F)c2C)c1Br	-1.3	-3	.	.	.
O=C(OCCN1CCOCC1)C1(c2ccccc2)CCCCC1	0.9	5	.	-3%	.
O=C(NC1CCCCC1)C(c1ccc(F)cc1)N(Cc1cccs1)C(=O)CN1C(=O)c2ccccc2S1(=O)=O (centres undefined)	0.8	3	-11	9%	-31
O=C(O)/C=C/C(=O)N(CC1CCCO1)C1CC(=O)N(c2c(Cl)cccc2Cl)C1=O (centres undefined)	1.9	0	.	2%	.
CN1C(=O)/C(=C/c2ccccc2OCc2cccc(F)c2)N(C)C1=S	.	-1	3	-10%	-19
O=C(c1cccn2c(=O)c3ccc(Cl)cc3nc12)N1CCC2(CC1)OCCO2	-66	.	2	.	1
CCOC(=O)CSc1nc(N)c(C#N)c(CC(C)C)c1C#N	-0.9	99	1	1.4µM*	-5
O=C1c2cccc3c(N4CCCCC4)ccc(c23)C(=O)N1c1ccc(O)cc1	-81	3	-6	6%	.
Cc1cc(=O)oc2c(CN3CCC(C)CC3)c(O)c(Cl)cc12	-108	7	11	-7%	2
CCCCn1nnc(NC(=O)c2ccc(-c3cccc(Cl)c3)o2)n1	7.7	-10	-13	0%	-41
Cc1cc(-c2nnc(SCC(=O)c3ccc(Cl)cc3)o2)no1	-1.4	-1	-14	0%	-29
CCC(=O)OCc1c(C(F)(F)F)nn(C)c1Sc1ccc(Cl)cc1	16	5	9	12%	-36
Cc1ccsc1/C=C1\CCC(C2CCCC2)C1=O (centres undefined)	11	11	-9	-5%	.
O=C(Nc1nc(-c2ccc(Cl)s2)cs1)c1ccco1	12	81	-11	64%	.
Oc1ccc(C=NC2CCCCC2)cc1	0.7	-6	.	-4%	.
COCCCn1c(=O)c2ccccc2n2c(=S)[nH]nc12	-1.6	-6	.	.	.
CCOc1cccc2sc(N(CCCN(C)C)C(=O)c3ccc(C(=O)c4ccccc4)cc3)nc12	-1.2	22	.	.	.
CCN(CCCNS(=O)(=O)c1ccc2c(c1)oc(=O)n2C)c1cccc(C)c1	.	2	-6	10%	-25	Arbovirus inh repeat=-3
CCOC(=O)c1cc(CC)sc1N1C(=O)CC(Sc2ccccc2C(=O)O)C1=O (centres undefined)	0.2	-4	5	-6%	.
COC(=O)Cc1c(C)c2c(OCc3nn[nH]n3)cc(C)cc2oc1=O	-1.5	-3	2	-4%	-61
Cc1nc2c(C(F)(F)F)cccc2c2c1CCS2	5.5	-8	6	1%	.
O=C1NC(c2ccccc2Cl)Nc2ccccc21 (centres undefined)	-1.5	-9	-20	1%	-27
O=S(=O)(c1ccc2c(c1)OCCCO2)N1CCNCC1	-0.7	-3	9	0%	-43
C/C(=N/OCO/N=C(\C)c1ccccc1F)c1ccccc1F	-1.8	-1	-9	11%	-16
O=C(Nc1ncccc1Cl)C(Sc1ccccc1)c1ccccc1 (centres undefined)	3.4	-11	2	-5%	-25

New compounds follow.
SMILES	RecA intein inh	Mtb bLac sens	Arbovirus inh	Mtb H37Rv	YopH PTP inh	others
CCOC(=O)CSc1nnc(C)n1N	-2.4	0	1	-3%	-27
C/C(=N\NC(=O)c1ccccc1[N+](=O)[O-])c1c(O)cc(C)oc1=O	-1.3	10	1	3%	-24
CCOc1ccccc1NC(=O)C(NCCc1ccc(OC)cc1)c1ccccc1 (centres undefined)	11	3	.	.	.
CCCn1c(SCC(=O)N2CCCc3ccccc32)nnc1-c1ccccn1	0.8	2	5	.	-13
COc1ccc(CC(CC(=O)O)C(=O)Nc2ccc(Cl)c(Cl)c2)cc1 (centres undefined)	0.6	4	.	.	.
Cc1ccc(NC(=O)CSc2nnc(-c3ccccc3C)o2)cc1C	-2.0	4	0	6%	-37
CCOc1ccccc1C1C(C(N)=O)=C(C)Nc2nc(-c3cccc(C)c3)nn21 (centres undefined)	3.1	2	0	0%	-43
Cc1ccsc1/C=C1/NC(=O)N(Cc2ccc(F)cc2)C1=O	1.5	-3	3	6%	.
CC(C)OCCCNC(=O)C(=O)N/N=C/c1ccc(OCc2ccccc2)cc1	-0.5	-1	.	-6%	.
FC(F)(F)c1nnc2ccc(NCc3ccccc3)nn12	-0.5	-4	-3	0%	.
CN1CCc2c(sc3nc(NN)n(-c4ccc(Cl)cc4)c(=O)c23)C1	-2.8	2	.	.	.
COc1ccc(C(=O)NN2C(=O)C3C4C=CC(O4)C3C2=O)cc1 (centres undefined)	-3.7	0	16	-5%	-29
Cc1ccc(S(=O)(=O)N[C@@H](CCCCN)C(=O)CCl)cc1	50*	1	.	-1%	.
COc1ccc(-c2oc3ccc(-c4cc(OC)c(OC)c(OC)c4)cc3c2C#Cc2ccsc2)cc1	1.4	26	.	.	.
Cc1ccc2nc(/C(C#N)=C/c3cn[nH]c3-c3ccc(F)cc3)[nH]c2c1	-3.0	99	-14	80%	-38
Nc1cc2c(cc1C(=O)c1ccccc1F)OCCO2	-1.4	3	-3	2%	.
